# GIRK2 act: GIRK2 channel activation | P48051 | HEK293-GIRK2 thallium flux, Thallos fluorescence | calls only for hits at 25 µM | 63,000 tested, 0.05% active;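 active = among the strongest 0.2% of first-round signals and kept after retests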;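 note: first round at about 10 µM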
# Target sequence (P48051 whole entry, looked up): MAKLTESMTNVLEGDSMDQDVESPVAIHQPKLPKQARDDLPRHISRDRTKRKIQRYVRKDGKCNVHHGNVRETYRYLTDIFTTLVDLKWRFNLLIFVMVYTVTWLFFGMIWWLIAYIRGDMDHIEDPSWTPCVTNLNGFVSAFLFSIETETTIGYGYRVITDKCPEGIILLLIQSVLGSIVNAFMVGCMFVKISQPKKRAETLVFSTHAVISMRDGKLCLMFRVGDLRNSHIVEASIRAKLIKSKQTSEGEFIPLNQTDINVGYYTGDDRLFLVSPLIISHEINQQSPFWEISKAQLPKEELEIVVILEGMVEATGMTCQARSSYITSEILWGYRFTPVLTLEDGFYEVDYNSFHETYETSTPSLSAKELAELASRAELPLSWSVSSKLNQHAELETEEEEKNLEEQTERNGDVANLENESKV
# Calls only; i = inactive.
SMILES,GIRK2 act
Cc1cc2nn(CC(=O)Nc3ccc(F)cc3Cl)c(=O)n2c(Nc2ccccc2C)n1,i
O=C(c1cccc(C(F)(F)F)c1)N1CCN(Cc2csc(-c3ccccc3)n2)CC1,i
C=CCn1c(=O)c(C(=O)Nc2ccc(C)c(Cl)c2)c(O)c2ccccc21,i
Cc1cccc(N2CCCn3c2nc2c3c(=O)n(CC(=O)OCc3ccccc3)c(=O)n2C)c1,i
C=C(C)Cn1c(=O)c2c(nc3n2C(C)C(C)=NN3CCOCC)n(C)c1=O (configuration not stated),i
COc1ccccc1CNC(=O)C(=O)NCC1CCN(C(=O)c2ccoc2)CC1,i
CC(=O)c1ccc(NC(=O)CSc2nnc(-c3ccncc3)o2)cc1,i
O=S(=O)(Nc1ccccc1F)c1c(Cl)cccc1Cl,i
Cc1cc(C)c(NC2=CC(=NS(=O)(=O)c3cccs3)c3ccccc3C2=O)c(C)c1,i
COc1ccc(C2(C(=O)NCCn3ccnc3C)CCOCC2)cc1,i
O=C(N1CCN(Cc2ccccc2)CC1)C(F)(F)F,i
Cc1cccc(C)c1N1CCN(S(=O)(=O)N(C)C)CC1,i
Cc1cc(C(=O)NCCc2nc3c(c(C(F)(F)F)n2)CCCC3)no1,i
COc1ccc(CC(=O)Nc2nnc(-c3ccsc3)o2)cc1OC,i
COc1ccc(Cl)cc1NC(=O)c1cc(=O)c(OC)cn1C,i
CCOc1ccc(C(=O)Nc2ccc3c(c2)CCC(=O)N3CC)cc1OCC,i
CCCn1c(=O)c2cc(Cl)ccc2n2c(SCC(=O)NCc3ccco3)nnc12,i
O=S(=O)(Cc1ccccc1)NCCNc1ccc(-n2cccc2)nn1,i
Cc1ccc(S(=O)(=O)N2CCN(c3ccc(C)c(C)c3)CC2)cc1,i
O=C(CCCCn1c(=O)[nH]c2ccccc2c1=O)N1CCN(Cc2ccc3c(c2)OCO3)CC1,i
Cc1noc(C)c1S(=O)(=O)N1CC(Oc2nc3c(C(F)(F)F)cccc3s2)C1,i
COc1ccc(OCCNC(=O)N2CCN(c3ccccc3)CC2)cc1,i
Cn1c(=O)[nH]c(=O)c2c1nc(N1CCCC1)n2CC(O)COc1ccc([N+](=O)[O-])cc1 (configuration not stated),i
COc1ccc(C(=O)c2oc3cc(NC(=O)C(C)C)ccc3c2C)cc1OC,i
Cc1cc(CN2CCC(CNC(=O)Cc3ccccc3Cl)CC2)c(C)o1,i
O=C(Cn1cccc(-c2nc(-c3ccccc3)no2)c1=O)Nc1ccc(Br)cc1F,i
O=C(c1ccc(Br)o1)N1CCOCC1,i
COCCNC(=O)N1CCc2nc(NC(=O)c3ccoc3)sc2C1,i
CCCn1c(C(=O)N2CCN(c3ccc(F)cc3)CC2)cc2c(=O)n(C)c(=O)n(C)c21,i
CCOc1ccccc1NC(=O)Cn1cc(C(=O)N2CCCC2)c(=O)c2ccc(C)nc21,i
O=S(=O)(NCc1cccc(-c2nccs2)c1)c1cccs1,i
O=C(NCc1cccnc1)c1cc2cc(Cl)ccc2oc1=O,i
COC(=O)c1ccc(C(=O)OC)c(NC(=O)CCl)c1,i
COc1nn(C)cc1C(=O)Nc1nc2c(s1)COc1ccccc1-2,i
CCCCCCCC/C=C\CCCCCCCC(N)=O,i
Cc1ccc(C(=O)N2CCN(c3nc(C)cc(N4CCCCC4)n3)CC2)cc1,i
Cc1ccc(C)c2sc(OC3CCN(C(=O)Cn4cnc5c4c(=O)n(C)c(=O)n5C)CC3)nc12,i
Cc1cc(C(F)(F)F)nc(CCNC(=O)c2ccc(S(=O)(=O)N3CCCC3)cc2)n1,i
CNC(=O)CCn1cnc2c([nH]c3ccc(C)cc32)c1=O,i
O=C(CN1CCc2[nH]c3ccccc3c(=O)c2C1)Nc1ccc(Cl)c(F)c1,i
COCCn1nnn(-c2ccc(NC(=O)c3cc4ccccc4o3)cc2)c1=O,i
Cc1cccc(N2N=NC3C(=O)N(c4ccc(C)c(F)c4)C(=O)C32)c1 (configuration not stated),i
Cc1cc(C)c2sc(N(CCN(C)C)C(=O)CCCS(=O)(=O)c3ccccc3)nc2c1,i
Cc1csc(NC(=O)CN2CCN(Cc3nc(-c4cccs4)cs3)CC2)n1,i
COCC(=O)N1CCCc2ccc(NC(=O)/C=C/c3ccccc3Cl)cc21,i
O=C(Nc1ccc(F)c(F)c1)C(=O)Nc1ccc2c(c1)OCO2,i
CCCNCC(O)COc1ccccc1C(=O)CCc1ccccc1 (configuration not stated),i
O=C(Cn1cnc2ccccc2c1=O)Nc1nc2c(s1)CN(S(=O)(=O)C1CC1)CC2,i
Cc1ccc(NC(=O)c2nc(-c3cn(-c4cccc(Cl)c4)nn3)no2)cc1,i
O=C(CN1CC(c2nc(-c3cccc(Cl)c3)no2)C1)N1CCc2ccccc21,i
O=C(NCCCN1CCN(c2ccccc2)CC1)c1ccccc1C(F)(F)F,i
CCn1nccc1C(=O)Nc1sc2c(c1-c1nc3ccccc3s1)CCC(C)C2 (configuration not stated),i
Cc1c(C)n2c3c(=O)n(CC(N)=O)c(=O)n(C)c3nc2n1C1CCCCC1,i
CC(=O)C(C)n1c(=O)c2c(nc3n(-c4ccc(C(F)(F)F)cc4)c(C)cn23)n(C)c1=O (configuration not stated),i
CC(C)CC1OC(=O)C2CCCN2C(=O)CCNC(=O)C(Cc2ccccc2)NC(=O)C(C(C)C)N(C)C(=O)C(C(C)C)N(C)C1=O (configuration not stated),i
O=C(Cn1c(=O)cnc2cc(C(=O)NC3CC3)ccc21)Nc1ccccc1C(F)(F)F,i
O=C(NC1CC(O)C(CO)C1)C(c1ccccc1)c1ccccc1 (configuration not stated),i
Cc1cc2oc3c(c(=O)c2cc1C)C(c1ccc(OC(C)C)cc1)N(CCN(C)C)C3=O (configuration not stated),i
Cc1cc(OCC(=O)Nc2ccc(C(C)C)cc2)nc(N2CCCC2)n1,i
CCCCCn1c(=S)[nH]c2cc(C(=O)Nc3ccc(C)c(F)c3)ccc2c1=O,i
# Additional results.
SMILES,GIRK2 act
O=C(Nc1nc2c(s1)CN(C(=O)Nc1ccccc1C(F)(F)F)CC2)c1ccco1,i
O=S(=O)(c1cccc(C(F)(F)F)c1)N1CCCC(COCc2ccccc2)C1 (configuration not stated),i
CCOc1cccc(-c2noc(CN3C(=O)COc4cc(C)ccc43)n2)c1,i
COc1ccc(C)cc1NC(=O)C(=O)NCC(c1ccccc1Cl)N(C)C (configuration not stated),i
COc1ccc(S(=O)(=O)NCCn2nc(-c3ccccc3)ccc2=O)cc1,i
COc1nn(C)cc1C(=O)Nc1nnc(SCC(=O)N2CCOCC2)s1,i
O=S(=O)(c1ccc(Cl)s1)N1CCC2(CC1)OCCS2,i
CCOCCn1c(=O)c2c(nc(-n3nc(C)cc3C)n2Cc2ccccc2C)n(C)c1=O,i
COc1cccc(C(=O)Nc2ccc(I)cc2C)c1,i
COc1ccccc1NC(=O)N1CCN(c2nc3c(C(F)(F)F)cccc3s2)CC1,i
CC(Oc1ccc(Cl)cc1Cl)C(=O)NCCOc1ccc2c(c1)OCO2 (configuration not stated),i
COc1cccc(S(=O)(=O)Nc2ccc(Nc3ccc(C)nn3)cc2)c1,i
CC(NC(=O)CN1CCOCC1)C12CC3CC(CC(C3)C1)C2 (configuration not stated),i
COc1ccccc1NC(=O)Cn1c(-c2nc(C(C)C)no2)cccc1=O,i
O=C(CSc1nnc(N2CCN(c3ccc(F)cc3)CC2)s1)Nc1nc2ccccc2s1,i
Cc1cc(C)n(-c2ccnc(N3CCC(C(=O)NCCN4CCCCC4)CC3)n2)n1,i
COc1ccccc1-n1c(C)c(C)n2c3c(=O)n(CC(C)=O)c(=O)n(C)c3nc12,i
CCOc1ccccc1CNC(=O)CCn1cnc2c([nH]c3ccc(F)cc32)c1=O,i
O=C(c1ccc2c(=O)n(-c3ccccc3)c(=O)[nH]c2c1)N1CCN(c2ccccc2)CC1,i
N#Cc1cccc(NC(=O)c2cn(CC(O)c3ccccc3)nn2)c1 (configuration not stated),i
CC1CCCN(C(=O)C2CCC(Cn3c(=O)[nH]c4ccsc4c3=O)CC2)C1 (configuration not stated),i
CCOC(=O)N1CCN(C2CC(=O)N(c3ccc(OC(F)F)cc3)C2=O)CC1 (configuration not stated),i
COCCN1CCC(NC(=O)COc2ccc(OC)cc2)CC1,i
Cc1ccc(NCc2cc3cc4c(cc3n(CC(=O)Nc3ccccc3Cl)c2=O)OCCO4)cc1,i
Cc1nnc(NC(=O)CSc2nnc(N3CCN(c4ccc(F)cc4)CC3)s2)s1,i
COc1ccccc1N1CCN(CC(=O)Nc2ccc(OC(F)(F)F)cc2)C1=O,i
Cc1ccccc1-n1cnnc1CN1CCN(C(=O)c2cccs2)CC1,i
O=C(Nc1ccc(Cl)cc1)C(c1ccccc1)N1CCOCC1 (configuration not stated),i
Cc1cc(C)cc(NC(=O)Cc2nnc3cc(-c4nc(C5CC5)no4)ccn23)c1,i
COC(=O)CNC(=O)c1csc(-c2cc3ccccc3n2C)n1,i
O=C(CSc1nnc(-c2cccc(S(=O)(=O)N3CCOCC3)c2)o1)c1ccc(Cl)cc1,i
Cc1onc(-c2ccccc2Cl)c1C(=O)NCC1CCC(c2nc3ccccc3n2C)CC1 (configuration not stated),i
CSc1ccc(CNC(=O)c2cn(-c3cccc(Cl)c3)nn2)cc1,i
NC(=O)c1nnn(-c2ccc(NC(=O)C3(c4cccs4)CCCC3)cc2)n1,i
O=C(Cn1c(=O)oc2ccccc21)NCC#CCOc1ccc2c(c1)OCO2,i
COC(=O)c1ccc(CSc2nc(-c3ccco3)cc(C(F)(F)F)n2)cc1,i
COc1cc(OC)cc(C(=O)Nc2sc3c(c2-c2nc4ccccc4s2)CCN(C(C)=O)C3)c1,i
COC(=O)N1CCc2ccccc2C1C(=O)Nc1ccccc1C(N)=O (configuration not stated),i
COc1ccc2nc(N(CCn3cccn3)C(=O)c3ccc4c(c3)OCCO4)sc2c1,i
COC(=O)c1ccc(C(=O)NC2CC(=O)N(C3CC3)C2)cc1 (configuration not stated),i

# Part of the list above in order of molecular weight, descending:
SMILES,GIRK2 act
Cc1nnc(NC(=O)CSc2nnc(N3CCN(c4ccc(F)cc4)CC3)s2)s1,i
COc1ccc2nc(N(CCn3cccn3)C(=O)c3ccc4c(c3)OCCO4)sc2c1,i
O=C(Nc1ccc(Cl)cc1)C(c1ccccc1)N1CCOCC1 (configuration not stated),i
COCCN1CCC(NC(=O)COc2ccc(OC)cc2)CC1,i

# The list goes on.
SMILES,GIRK2 act
O=C(Nc1cccc(Cl)c1)N1CC(Oc2nc3ccccc3s2)C1,i
O=C(O)c1nnn(-c2ccc(Cl)cc2)c1-c1ccccc1,i
O=C(Cn1cccc(S(=O)(=O)N2CCOCC2)c1=O)Nc1ccc(Cl)cc1F,i
COCCNC(=O)Nc1nc(-c2cc(Cl)ccc2Cl)cs1,i
COCCc1nnc(NC(=O)Cc2ccc(C)cc2C)o1,i
COc1cccc(-n2c(C)cn3c4c(=O)n(CCN5CCOCC5)c(=O)n(C)c4nc23)c1,i
CCC(C)NC(=O)c1ccc2c(=O)n(C)c3nn(CC(=O)NC(C)C)c(=O)n3c2c1 (configuration not stated),i
Cc1cc(C)c(NC(=O)CSc2cc(C)nc(-c3cccnc3)n2)c(C)c1,i
Cc1ccc2nc(NC(=O)C3CCN(c4ccc(-c5ccncc5)nn4)CC3)sc2c1,i
COC(=O)c1ccc(NC(=O)Cc2cc(=O)[nH]c(SCc3ccccc3)n2)cc1,i
Cc1ccc2c(Nc3ccc(CC(=O)O)cc3)c(C(=O)N3CCOCC3)cnc2n1,i
O=C(c1ccc(Cl)c(S(=O)(=O)N2CCCCCC2)c1)N1CCN(c2ccccc2F)CC1,i
COCCCn1c(C(=O)N(C)Cc2ccccc2)cc2c(=O)n3ccccc3nc21,i
C=CCn1c(=O)c2c(nc(N/N=C\c3ccc(O)c(OC)c3)n2C)n(C)c1=O,i
O=C(NCCn1nc(-c2ccco2)ccc1=O)c1cc(-c2ccccc2)on1,i
CC1CCN(S(=O)(=O)c2ccc(N)cc2)CC1,i
CC(C)C(=O)Nc1ccc(C(=O)NCCNS(=O)(=O)c2ccc(F)c(Cl)c2)cc1,i
O=C(CCCN1C(=O)c2cccc3cccc(c23)C1=O)Nc1cccc2cnccc12,i
COc1ccccc1-c1coc2cc(OCc3cc(Cl)cc4c3OCOC4)ccc2c1=O,i
COc1cc(C(=O)Nc2ccc3c(c2)OCO3)cc(OC)c1OC,i
O=C1CCSCC(C(=O)NCc2ccncc2)N1 (configuration not stated),i
Cc1cc(=O)[nH]c(-n2nc(-c3cccs3)cc2NC(=O)Cc2ccc(-c3ccccc3)cc2)n1,i
CCCn1c(=O)c2cc(Cl)ccc2n2c(SCC(=O)NCc3ccccc3)nnc12,i
O=C(Nc1nnc(-c2ccsc2)o1)NC1CCCCC1,i
CS(=O)(=O)N1CCc2nc(NC(=O)c3ccoc3)sc2C1,i
CCOC(=O)c1ccc(S(=O)(=O)N2CCN(CCn3nc(-c4ccccc4)ccc3=O)CC2)cc1,i
Fc1ccc(-c2cc3c(N4CCN(c5ccccc5)CC4)nccn3n2)cc1,i
O=C(c1cn(-c2cc(N3CCCCC3)ncn2)cn1)N1CCN(c2ncccn2)CC1,i
C#CCn1c(=NC(C)=O)sc2ccccc21,i
O=C(NCc1ccc(F)cc1)NCC1(c2ccccc2)CCOCC1,i

# Molecules shown so far that have a furan ring, fused or not (eleven):
SMILES,GIRK2 act
COc1ccccc1CNC(=O)C(=O)NCC1CCN(C(=O)c2ccoc2)CC1,i
CCCn1c(=O)c2cc(Cl)ccc2n2c(SCC(=O)NCc3ccco3)nnc12,i
COc1ccc(C(=O)c2oc3cc(NC(=O)C(C)C)ccc3c2C)cc1OC,i
Cc1cc(CN2CCC(CNC(=O)Cc3ccccc3Cl)CC2)c(C)o1,i
O=C(c1ccc(Br)o1)N1CCOCC1,i
COCCNC(=O)N1CCc2nc(NC(=O)c3ccoc3)sc2C1,i
COCCn1nnn(-c2ccc(NC(=O)c3cc4ccccc4o3)cc2)c1=O,i
O=C(Nc1nc2c(s1)CN(C(=O)Nc1ccccc1C(F)(F)F)CC2)c1ccco1,i
COC(=O)c1ccc(CSc2nc(-c3ccco3)cc(C(F)(F)F)n2)cc1,i
O=C(NCCn1nc(-c2ccco2)ccc1=O)c1cc(-c2ccccc2)on1,i
CS(=O)(=O)N1CCc2nc(NC(=O)c3ccoc3)sc2C1,i

# Assay outcomes as filed in PubChem.

# Some of the compounds tested; the hit share may differ from the screen's.
